LANA-nucl inh: inhibitors of KSHV LANA binding to nucleosomes; FITC-LANA1-23 / chicken nucleosome fluorescence polarization; stronger effect = lower value; z-score (no concentration beside the values); 51,000 tested, 0.3% active;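 active = both repeat wells score below -2 in polarization z-score versus plate sample wells, excluding overly bright wells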;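 note: 100 nL library stock added to about 30 µL; numbers are from one replicate; some results filed as inactive read as strong as hits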
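Material: Purified chicken nucleosomes with FITC-labelled LANA N-terminal peptide (1-23) | Reagent: 50 nM FITC-LANA1-23 probe | Medium: TEN-BT buffer, pH 7.5 | Times: 10–45 min incubation at room temperature | Detection: Fluorescence polarization | Replication: Duplicates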
Ab BasE inh: inhibitors of Acinetobacter baumannii siderophore enzyme BasE; purified BasE, fluorescence polarization binding displacement; inhibition, % (no concentration beside the values); 84,000 tested, 0.1% active; AID 485350;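 active = both replicates above 25% with normal brightness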;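 note: 0% = negative plate control signal and 100% = positive plate control signal; stock transfer was 100 nL into about 30 µL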
* hit, by the source's call; · = not tested or not shown; & = joins results of further samples. A portion of the library; rates above refer to the full screens.

Every second line gives: LANA-nucl inh	Ab BasE inh
> Cc1[nH]c2ccccc2c1C(=O)C(C)OC(=O)c1ccccc1-n1cnnn1 (stereo not given)
 : ·	-0.9
> CO/N=C(/C(=O)N[C@@H]1C(=O)N2C(C(=O)O)=C(COC(C)=O)CS[C@H]12)c1csc(N)n1
 : 1.3&0.048	-0.2
> CC(C)(CNCC(O)c1ccccc1)N1CCOCC1 (stereo not given)
 : ·	0.3
> O=C(Nc1ccc(-c2nc3ccccc3s2)cc1)Nc1cc(F)cc2c1OCOC2
 : ·	-6.7
> CNc1nc2c(c(=O)[nH]c(=O)n2C)n1Cc1cccc2ccccc12
 : 0.17	0.2
> Nc1nc(N2CCOCC2)ncc1S(=O)(=O)c1ccc(Cl)cc1
 : ·	0.2
> O=C(Nc1ccccc1C1CC1)c1cccs1
 : -0.36	0.1
> CC(=O)Nc1cccc(O)c1
 : -0.54	-0.3
> CCc1ccc(Nc2nnc(SCC(=O)NC(=O)CN3CCCC3=O)s2)cc1
 : ·	2.4
> O=C1c2ccccc2C(=O)N1CCSc1n[nH]c(-c2ccccc2F)n1
 : ·	2.5
> O=C(NC(=O)N1CCCc2ccccc21)c1ccccc1
 : 1.5	-0.6
> Cc1ccccc1C(=O)NC(=S)N1CC(C)OC(C)C1 (stereo not given)
 : 0.001	0.6
> COc1cc(C)nc(N(C)S(=O)(=O)c2ccccc2)n1
 : 0.049	-3.9
> O=C(CSc1nccc(=O)[nH]1)C12CC3CC(CC(C3)C1)C2
 : ·	1.1
> C/C(=N\OC(=O)Nc1ccc(Cl)cc1)c1cc(-c2ccccc2)no1
 : -1.5	0.2

Further results follow.
Every second line gives: LANA-nucl inh	Ab BasE inh
> CC(C)(C)NC(=O)Cn1c(SCC(=O)c2ccc3c(c2)OCCO3)nc2ccccc21
 : 0.11	1.4
> CCC(=O)N1CCc2cc(S(=O)(=O)NC(C(=O)NCc3ccco3)C(C)C)ccc21 (stereo not given)
 : -0.48	0.4
> O=C(/C=C/c1ccccc1)NCCN1CCOCC1
 : -0.048	1.8
> O=C(Cn1ncc(Cl)c(Cl)c1=O)N1CCOCC1
 : ·	1.6
> CC(Sc1nnc(C2CCCCC2)n1-c1cccc(Cl)c1)C(=O)O (stereo not given)
 : -1.4	-3.7
> O=C(CSc1ccc2ccccc2n1)NCCCN1CCCC1=O
 : ·	4.1
> N#Cc1cc2c(nc1SC1CCc3ccccc3C1=O)CCCC2 (stereo not given)
 : -0.48	3.7
> CC1=NNC(=O)/C1=C/c1ccc(-c2ccc(Cl)cc2)o1
 : 0.44	2.0
> CC(C)c1nnc(SCC(=O)NC(C)(C)C)n1C
 : 0.2	-0.1
> COC(=O)c1ccc(=O)c2nc3/c(=C/O)c(O)cc(=O)c3[nH]c12
 : 1.3	·
> CC(C)(C)n1ncc2c(=O)n(CC(=O)N3CCCC3)cnc21
 : 0.37	-0.6
> O=C(CSc1ncccn1)N1CCCc2ccccc21
 : 0.74	0.8
> OC(CN1CCCCC1)CN1CCCCC1
 : -1.2	-1.5
> Cc1ccc(NCc2nnc(SCc3nc4ccccc4c(=O)[nH]3)n2Cc2ccco2)c(C)c1
 : 0.043	2.1
> O=C(NCc1ccc2c(c1)OCO2)c1cc2ccccc2s1
 : ·	0.9

Next section
Every second line gives: LANA-nucl inh	Ab BasE inh
> Cc1ccc(NC(=O)Nc2cc3c(cc2N2CCCC2)n(C)c(=O)n3C)cc1C
 : 0.79	0.1
> Cc1ccc(S(=O)(=O)NC(=O)NC(C)(C)C)cc1
 : 0.15	-2.1
> O=C(Nc1ccc(N2CCOCC2)cc1)c1cnc2ccccc2n1
 : ·	-0.1
> CC(C)Cn1c(O)c(N=NC(=S)NC(C)C)c2ccccc21
 : ·	0.1
> COC(=O)c1cc(CSc2nnc(-c3ccccc3)c(-c3ccccc3)n2)oc1C
 : ·	-4.8
> CC(C)(C)c1csc(-c2ccc(-c3cccs3)s2)n1
 : ·	1.3
> CCOC(=O)Cn1c(=NC(=O)C2COc3ccccc3O2)sc2cc(NC(C)=O)ccc21 (stereo not given)
 : 1.8	-5.0
> CCn1c(O)c(N=NC(C)=O)c2ccccc21
 : ·	3.3
> O=C(C1CCCCC1)N1CCC(n2nnc3ccccc32)CC1
 : 2.3	-2.5
> CC(c1ccccc1)C(CC(=O)Nc1nccs1)C(=O)Nc1nccs1 (stereo not given)
 : 0.43	-1.3
> Clc1ncnc2c1[nH]c1ccccc12
 : -0.19	-1.9
> c1ccc2sc(SCc3cn4cccnc4n3)nc2c1
 : ·	-0.2
> Cc1ccc(NCC(O)Cn2c3ccccc3c3ccccc32)cc1 (stereo not given)
 : ·	3.1
> CC(NCC1CCCO1)C(=O)N(C(C)C)C(C)C (stereo not given)
 : 0.58	-2.8
> Cc1ccc(C(=O)CSc2ncn(-c3ccccc3)n2)cc1
 : -0.056	2.0

The last two compounds of the section before are carried over, then new ones follow:
Every second line gives: LANA-nucl inh	Ab BasE inh
> CC(NCC1CCCO1)C(=O)N(C(C)C)C(C)C (stereo not given)
 : 0.58	-2.8
> Cc1ccc(C(=O)CSc2ncn(-c3ccccc3)n2)cc1
 : -0.056	2.0
> CCOC(=O)/C(=C\c1ccc(OCC(=O)O)cc1)C1=Nn2c(nnc2C2CCCCC2)SC1
 : ·	-2.4
> COc1cccc(C2CC(c3cccs3)=NN2C(=O)CSC2CCCCC2)c1OC (stereo not given)
 : ·	1.3
> O=C(CSc1ncccc1C(=O)Nc1ccc2c(c1)OCCO2)Nc1ccc2c(c1)OCO2
 : ·	3.5
> COc1ccc(OCCOc2ccc(C)cc2OC)cc1
 : -0.48	1.6
> CC(=NCC(c1ccco1)N1CCCCC1)C1=C(O)CC2(CCCCC2)CC1=O (stereo not given)
 : ·	0.1
> CC(=O)Nc1ccccc1OCC(=O)N(C)Cc1ccco1
 : ·	-0.5
> CC(=O)Nc1ccc(S(=O)(=O)NNc2ncnc3sccc23)cc1
 : -0.74	-1.3
> O=c1c(Cl)c(N2CCCC2c2ccc3c(c2)OCCO3)cnn1-c1nc2ccccc2[nH]1 (stereo not given)
 : ·	0.0
> CCc1nc(C)cn1S(=O)(=O)c1cc(Br)c(C)cc1OC
 : 1.9	-3.7
> Cc1cc(NS(=O)(=O)c2ccc(NC(=O)c3ccncc3)cc2)nc(C)n1
 : ·	1.8
> COc1c(C)cc(S(=O)(=O)N2CCN(c3ccc(F)cc3)CC2)c(C)c1C
 : 0.33	-1.2
> CCOC(=O)c1nnn2c1nc(Sc1nc3ccccc3[nH]1)c1ccccc12
 : 0.022	-0.2
> O=c1c(O)c(-c2ccccc2O)[nH]c2ccccc12
 : ·	3.1
> O=C(N/N=C/c1ccccn1)c1ccccc1NS(=O)(=O)c1cccs1
 : ·	-3.2
> Cc1ccc(-n2nc(C)c3cc(C#N)c4nc5ccccc5n4c32)cc1
 : ·	-11

(list continues)
Every second line gives: LANA-nucl inh	Ab BasE inh
> CC(C)(C)c1ccc(C(=O)N(Cc2ccco2)C2CCS(=O)(=O)C2)cc1 (stereo not given)
 : 1.1	-0.7
> CSc1cccc(NC(=O)CN(Cc2ccccc2)S(C)(=O)=O)c1
 : -0.8	4.1
> Cc1ccc(Nc2nn3c(=O)c4ccccc4nc3s2)cc1
 : 0.15	0.2
> COc1cc2c(c(OC)c1)C(c1ccncc1)CC(=O)N2 (stereo not given)
 : -0.29	0.3
> Cc1cc(C)c(S(=O)(=O)N(C)CC(=O)Nc2ccc3c(c2)OCO3)c(C)c1
 : 0.11	0.9
> C#CCn1c(=NC(=O)c2cccs2)sc2ccccc21
 : 0.66	0.6
> Cc1c(C(=O)NN)oc2ccccc12
 : ·	0.6
> CC(C)=C1C(=O)Nc2ccc(S(=O)(=O)N3CCCCC3)cc21
 : 0.87	-2.2
> COCCOc1ncc(NC(=O)CSCC(=O)O)cc1C(F)(F)F
 : 0.58	1.1
> CCc1ccc(NC2=NC(C(=O)NC3CCCCC3)CC(=O)N2)cc1 (stereo not given)
 : 0.48	1.9
> c1ccc(CSc2ncnc3c2cnn3-c2ccccc2)cc1
 : -0.38	2.2
> COC(=O)CSc1nc2c(cc1C#N)CCCC2
 : 2.4	-1.1
> CCc1ccc2[nH]c(=O)c(CN(Cc3ccco3)C(=O)c3ccccc3)cc2c1
 : 0.014	-0.9
> CCCCCCSc1s[nH]c(=O)c1C#N
 : -1.2	85*
> CC(CC(=O)NC1CCCC1)c1ccccc1 (stereo not given)
 : 0.5	2.0

(list continues)
Every second line gives: LANA-nucl inh	Ab BasE inh
> OCC(CO)(CO)NCc1ccc(Cl)cc1Cl
 : ·	1.1
> Cc1ccc(N2C(=O)CCC(C(=O)OCc3nnc(-c4ccccc4)o3)C2c2cccs2)cc1 (stereo not given)
 : ·	1.5
> C/C(=N\NC(N)=O)c1csc2ccccc12
 : -0.55	0.6
> CCN1CCN(CC2CCCCC2)CC1
 : 1.6	-0.9
> CC(c1ccccc1)n1c(C2CC2)nc2ccccc21 (stereo not given)
 : -0.82	1.8
> Oc1c(C=NCc2ccccc2)sc2ccccc12
 : ·	-5.7
> CC(C)(C)S(=O)(=O)/C(C#N)=C/N1CCC(n2cccc2)CC1
 : ·	-3.0
> O=C(Cn1c(SCC(=O)Nc2nccs2)nc2ccccc21)NCc1ccccc1
 : 0.81	0.1
> Cc1noc(C)c1COc1ccc(CC(=O)Nc2ccccc2N2CCOCC2)cc1
 : ·	0.1
> O=C(Nc1ccon1)c1cccc(Cl)c1
 : -0.48	3.8
> CNS(=O)(=O)c1cccc(C(=O)OCC(=O)c2cc(C)n(C)c2C)c1
 : ·	-3.1
> O=C(CN1CCCN(Cc2ccccc2)S1(=O)=O)N1CCCCCC1
 : 0.32	2.9
> CCN1C=CC2=C(C#N)C(N)C(C#N)(C#N)C(c3cccs3)C2C1 (stereo not given)
 : -6.3*	16
> C[C@@]1(OC(=O)/C=C\c2ccccc2)C[C@H](O)[C@@]2(O)C=CO[C@H](OC3OC(CO)C(O)C(O)C3O)C12 (stereo not given in full)
 : 0.11	-0.6
> Cc1ccc2nc(COC(=O)Cc3ccsc3)cc(=O)n2c1
 : ·	-0.4

Single records (already shown). Values in the order: LANA-nucl inh, Ab BasE inh
Shown for C/C(=N\NC(N)=O)c1csc2ccccc12 → -0.55, 0.6
Shown for CCN1C=CC2=C(C#N)C(N)C(C#N)(C#N)C(c3cccs3)C2C1 (stereo not given) → -6.3*, 16

(list continues)
Every second line gives: LANA-nucl inh	Ab BasE inh
> COc1cccc(N2CCN(C(=O)CNC(=O)C34CC5CC(CC(C5)C3)C4)CC2)c1
 : ·	-0.6
> COc1cc2c(cc1OC)CN(CN1C(=O)CC3(CCCC3)C1=O)CC2
 : ·	2.4
> CCN(CC)S(=O)(=O)N1CCN(S(=O)(=O)N2CCOCC2)CC1
 : 2.3	-2.8
> C=CCN(CC=C)Cc1c(O)ccc2oc(C)c(C(=O)Nc3ccccc3C)c12
 : 0.8	-0.1
> Cc1nc2ncnn2c(C)c1CCC(=O)N(C)CCOc1ccc(Cl)cc1
 : ·	-1.8
> O=C(CN1C(=O)c2ccccc2C1=O)OCc1cc(=O)n2ccsc2n1
 : -1.1	0.3
> Cn1c(=O)n(C)c2cc(Nc3cc(N4CCCC4)ncn3)ccc21
 : -0.23	0.7
> NC(=O)NC(=O)C(Sc1ncccn1)c1ccccc1 (stereo not given)
 : ·	-0.5
> CC(C)c1cccc(C(C)C)c1NS(C)(=O)=O
 : 1.3	-1.2
> CCCCCc1nc2ccccc2c(=O)n1N
 : 0.26	2.0
> Cn1c(=O)c2c(ncn2CC(=O)N(CC(=O)NC2CCCCC2)Cc2ccccc2Cl)n(C)c1=O
 : 0.56	-0.5
> CSc1nnc(CNC(=O)NCc2ccccc2)n1C
 : -0.21	-0.5
> Cc1cc2[nH]c(=O)c(=O)[nH]c2cc1S(=O)(=O)N1CCN(CCOc2ccc(Cl)cc2)CC1
 : 2.7	-0.2
> COC(=O)c1ccc2c(c1)NC(=O)CN2
 : 1.4	-6.7
> O=C(c1ccccc1)n1nc(-c2ccco2)nc1NCc1ccccc1
 : -0.014	1.2

Next section
Every second line gives: LANA-nucl inh	Ab BasE inh
> CCCN(CCC)C1Sc2ccc(C(=O)OC)cc2NC1=O (stereo not given)
 : -0.4	0.7
> Cc1noc(C)c1CSc1ccccc1C(=O)N1CCN(C(=O)c2ccco2)CC1
 : ·	1.0
> CCOC(=O)Cc1ccc(NC(=O)c2ccc(OC)c(OC)c2)cc1
 : 0.63	20
> Cc1cc(NC(=O)COC(=O)/C=C/c2cccs2)no1
 : ·	-1.3
> CSc1nc2ccccc2n1CN1CCN(CC(=O)Nc2ccccc2Cl)CC1
 : ·	-1.1
> CCN(CC)C(=O)N(C)Cc1ccccc1
 : -0.35	1.6
> COc1c[nH]n(C(C)(C)C)c(=O)c1=O
 : 1.8	-6.6
> CCOC(=O)C1=C(c2ccc(OC)cc2)NC(=O)NC1c1ccc(OC)cc1 (stereo not given)
 : ·	0.5
> O=C(O)/C=C/C(=O)Nc1cn(-c2ccccc2)nc1-c1ccccc1
 : ·	2.2
> O=C(c1ccco1)N1CCN(C(=O)N2c3ccccc3Sc3ccccc32)CC1
 : -0.34	-1.4
> NCC1CCCCC1CC(=O)O (stereo not given)
 : -0.031&-0.0085	-0.1
> O=C(/C=C/C=C/c1ccco1)c1ccccc1
 : 0.069	·
> Cc1ccc(S(=O)(=O)N(C)c2ccccc2C(=O)N2CCCC2)cc1
 : 0.49	3.7
> CN(C)C(=O)COC(=O)c1cc2ccccc2oc1=O
 : ·	-1.1
> N#Cc1ccc(OCc2ccc(Cl)nc2)cc1
 : 0.88	·

(list continues)
Every second line gives: LANA-nucl inh	Ab BasE inh
> N#C/C(=C/c1cccs1)C(=O)O
 : -0.86	1.0
> COCc1cc(=O)[nH]c(/N=C(\N)Nc2ccc(F)cc2)n1
 : 1.3	-2.8
> O=C(O)CCn1c(-c2ccc(F)cc2)n[nH]c1=S
 : ·	-4.6
> CCN(Cc1ccncc1)C(=O)c1ccc(Cl)c(Cl)c1
 : -1.4	1.4

Screening results (PubChem BioAssay)
